miR-21 reporter = miR-21 reporter, rising signal; HeLa miR-21 FLuc reporter, luciferase, 48 h; Potency, µM (series often up to 38.3 µM), for the others: at the highest dose reporter change, positive = more light; 340,000 tested, under 10 active; AID 2288; active = well fitted rising curve with a large enough effect; inconclusive = small, poorly fitted or top-dose-only effect; inactive = no such curve, though single readings can be large or run the other way;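 further: % of control where 0% means no effect; miR-21 action dims this reporter so a rising signal means less miR-21 action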
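Using DMEM plus 10% FBS, HeLa miR-21-FLuc cells are incubated with test compounds (final up to about 40uM) for 48 hours; firefly luciferase signal is then imaged following reagent-mediated lysis.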
* hit, by the source's call; ? = inconclusive. Not all compounds are listed; the hit share may differ from the screen's.

miR-21 reporter | mol
5% | Cc1oc2c(c1C(=O)NCc1cccc(Br)c1)C1=NCCN1C=N2
1% | Cc1ccc2c(c1)-c1nc(-c3ccc(Cl)cc3)cc(-c3coc4ccccc4c3=O)c1CO2
-41% | O=C(Nc1cc(F)ccc1F)c1ccc2c(c1)nnn2C1CCCC1
7% | Cc1ccc(-c2onc(C)c2C)cc1S(=O)(=O)NCc1ccco1
1% | COc1cccc(NC(=O)CCc2nnc3n(CC(C)C)c(=O)c4ccccc4n23)c1
5% | Cc1cc(C)cc(NC(=O)CC(C)n2nc(C)cc2C)c1 (stereo not drawn)
-23% | CCOC(=O)COc1ccc(/C=C(\C#N)c2nc3ccc(C)cc3[nH]2)cc1OC
-7% | CCCN(C(=O)c1cn(C)c(=O)c2cc(OC)c(OC)cc12)c1ccc(CC)cc1
0% | Cc1cc(Nc2ccccc2Cl)n2nc(-c3ccco3)nc2n1
3% | Cc1nc2ncnn2c(C)c1CCC(=O)NCc1ccc(Cl)cc1
-3% | COc1cccc(CNC(=O)CN2C(=O)CCn3nc(-c4cn(C)c5ccccc45)cc32)c1OC
4% | O=c1c(S(=O)(=O)c2ccccc2)cn(Cc2ccc(F)cc2)c2cc(N3CCCC3)c(F)cc12
-4% | CC(=O)N1CCc2cc(CNC(=O)Nc3ccc(Br)c(C)c3)ccc21
-3% | Cc1ccc(-n2nnnc2CNC(=O)c2ccccc2)cc1C
-29% | Fc1ccc(Nc2nc(-c3cccc(Cl)c3)c3c(n2)-c2ccccc2OC3)cc1
4% | COc1cccc(CNC(=O)CCn2c(=O)c3cccn3c3ccc(F)cc32)c1OC
6% | CC(C)c1ccc(NC(=O)CSC2=Nc3ccccc3C3=NC(CCC(=O)NC4CCCCC4)C(=O)N23)cc1 (stereo not drawn)
0% | O=C(Nc1cccc(C(F)(F)F)c1)c1cc2nc(-c3ccc4c(c3)OCO4)cc(C(F)(F)F)n2n1
0% | CCOc1ccc(CNC(=O)c2sc3ncnc(N(C)C4CCCCC4)c3c2C)cc1
-10% | Cc1ccc(N=C2NC(=O)CC(C(=O)Nc3cc(C(F)(F)F)ccc3Cl)S2)cc1 (stereo not drawn)

Grouped by structure, those above with a furan ring, fused or not (three)
miR-21 reporter | mol
5% | Cc1oc2c(c1C(=O)NCc1cccc(Br)c1)C1=NCCN1C=N2
7% | Cc1ccc(-c2onc(C)c2C)cc1S(=O)(=O)NCc1ccco1
0% | Cc1cc(Nc2ccccc2Cl)n2nc(-c3ccco3)nc2n1

(more compounds)
miR-21 reporter | mol
-7% | CCN(CC)c1ccc(NC(=O)CN2CCN(CC(=O)Nc3ccc(Cl)cc3)CC2)cc1
8% | CCOC(=O)Cn1c(=O)oc2cc(S(=O)(=O)N3CCN(c4ccc(Cl)cc4)CC3)ccc21
4% | Cc1cccc(C(=O)Nc2ccc(S(=O)(=O)N3CCC(c4nc5ccccc5s4)CC3)cc2)c1
-5% | COc1ccc(S(=O)(=O)c2cn(C)c3cc(N4CCCCCC4)c(F)cc3c2=O)cc1
-6% | CCN1CCN(C(c2cccc(F)c2)c2c(O)cc(C)n(CCOC)c2=O)CC1 (stereo not drawn)
-6% | CCOc1ccc(C2C(C(=O)OC)=C(C)NC3=C2C(=O)c2ccccc23)cc1OC (stereo not drawn)
? | CCCCS(=O)(=O)c1oc(-c2cccs2)nc1S(=O)(=O)c1ccc(F)cc1
1% | Cc1ccc(S(=O)(=O)N(C)S(=O)(=O)c2ccc(C#N)cc2)cc1
0% | Cc1ccc2c(c1)N(C(=O)Nc1cccc(C)c1C)CCO2
-11% | CC(=O)Nc1cccc(-c2nnc(SCC(=O)c3ccc([N+](=O)[O-])cc3)o2)c1
0% | COc1ccc(-n2nc(C(=O)N3CCN(c4ccc(F)cc4)CC3)c3c4ccccc4n(C)c3c2=O)cc1
-2% | Cc1ccccc1C(=O)NCc1nc2cccnc2n1Cc1ccccc1
3% | COc1ccc(CCNC(=O)CCc2c(C)c3cc4c(C)coc4c(C)c3oc2=O)cc1OC
19% | COc1ccc(N2C(=O)CSC23C(=O)N(Cc2ccc(C)cc2)c2ccccc23)cc1Cl (stereo not drawn)
8% | Cn1c(=O)c2c(nc(NCCc3ccccc3)n2Cc2cccc(Br)c2)n(C)c1=O
8% | COc1ccc(S(=O)(=O)N2CCC(c3nc4ccccc4s3)CC2)cc1OC
3% | Cc1ccc(-n2c(C)nc3c(cnn3-c3ccccc3C)c2=O)cc1F
-11% | Cc1ccc(CSC2=Nc3ccccc3C3=NC(CC(=O)NC4CCCCC4)C(=O)N23)cc1 (stereo not drawn)
-9% | O=C(c1cccs1)N1CCCc2cc(NS(=O)(=O)c3ccc(F)cc3F)ccc21
20% | COc1ccc(Cn2ccc3nc(C)c(C(=O)Nc4cc(OC)c(OC)c(OC)c4)cc3c2=O)cc1
14% | Cc1cc(C)c(NC(=O)CCCN2C(=O)COc3ccc(C)cc32)c(C)c1
3% | COc1ccc(N2CC(NC(=O)/C=C\c3ccc4c(c3)OCO4)CC2=O)cc1OC (stereo not drawn)
9% | Cc1ccccc1C(=O)Oc1c(Sc2ccccc2)c(C)nn1C(C)(C)C
-7% | CCc1nc2nc(C)cc(Nc3ccc(F)c(Cl)c3)n2n1
3% | CCC(C)NC(=O)Cn1c(=O)n(CCCC(=O)NCc2ccc(C)cc2)c(=O)c2ccccc21 (stereo not drawn)
3% | NS(=O)(=O)c1ccc(NC(=O)C2Cc3ccccc3N2C(=O)c2ccccc2)cc1 (stereo not drawn)
-19% | COc1ccccc1C(=O)NC(=S)Nc1ccccc1N1CCCC1
26% | COc1ccc2[nH]cc(CCN=C(NC(=O)c3cccc(Cl)c3)Nc3nc(C)cc(C)n3)c2c1
-1% | O=C(CSc1nc(=O)[nH]c2c1CCCC2)NCc1ccc(F)cc1
5% | CCCc1cc(=O)[nH]c(SCc2nc(-c3ccc(OCC)cc3)no2)n1
6% | O=C(NCCSc1c[nH]c2ccccc12)c1ccc(Cl)cc1
5% | COc1ccc(CNC(=O)CN2N=C(c3ccc(Cl)cc3)CCC2=O)cc1
22% | COc1ccc2c(c1)CC(NC(=O)Nc1cc(Cl)ccc1OC)CO2 (stereo not drawn)
0% | COc1ccc(-n2nc(C(=O)Nc3ccc(Br)cc3C)c3c4ccccc4n(C)c3c2=O)cc1
0% | O=c1n(Cc2ccccc2Cl)c2ccccc2c2nc(-c3ccccc3)nn12
1% | COc1ccccc1C(=O)NC(=O)Nc1ccc(-n2nc(C(F)(F)F)cc2C(F)(F)F)cc1
2% | Cc1ccc(C(=O)N2CCC(C)CC2)cc1NC(=O)c1nsc2ccccc12
16% | Cc1ccc(CNC(=O)c2c[nH]n3c(=O)c(Cc4ccc(F)cc4Cl)c(C)nc23)cc1
0% | CCCCN(CCCC)C(=O)c1cc2c(=O)n3cccc(C)c3nc2s1
-6% | Cn1c(=O)c2c(-c3ccccc3)n3c(c2n(C)c1=O)C(c1ccc([N+](=O)[O-])cc1)Nc1ccccc1-3 (stereo not drawn)
-27% | CCOc1ccc(NC(=O)Cc2ccc(NC(=O)N3CCCCc4ccccc43)cc2)cc1
-7% | CCCCCCC(=O)Nc1cc2nc3c(nc2cc1C)c(=O)n(C)c(=O)n3C
4% | Cc1cc(C)c(NC(=O)Cn2ccn(-c3cccc(Cl)c3)c(=O)c2=O)c(C)c1
-7% | CC(C)(C)OC(=O)N1CCC(c2nnc(SCc3ccccc3)o2)CC1
4% | COc1ccccc1CCNC(=O)Cn1ccc2cc(S(=O)(=O)N3CCCCC3)ccc21
-9% | COc1ccc(Cl)cc1-n1nnc(-c2nsc(NC(=O)c3ccccc3Cl)n2)c1C
2% | Cc1ccc2nc(COc3ccccc3NC(=O)c3ccccc3F)cc(=O)n2c1
-21% | Cc1cccc(OCCSc2nnc(-c3cccs3)o2)c1
-10% | CCOC(=O)C1=C(C)N=C2SCCC(=O)N2C1c1ccc(OCc2ccccc2)c(OC)c1 (stereo not drawn)
1% | COc1ccccc1CNC(=O)Cn1c(=O)ccc2cc(S(=O)(=O)N3CCCC3)ccc21

Single values from the entries so far.
CCOc1ccc(NC(=O)Cc2ccc(NC(=O)N3CCCCc4ccccc43)cc2)cc1 in miR-21 reporter is listed with -27%
COc1ccc(Cl)cc1-n1nnc(-c2nsc(NC(=O)c3ccccc3Cl)n2)c1C in miR-21 reporter is listed with -9%
Cc1ccc2nc(COc3ccccc3NC(=O)c3ccccc3F)cc(=O)n2c1 in miR-21 reporter is listed with 2%

Other results follow:
miR-21 reporter | mol
-7% | Cc1ccc2cccc(NC(=O)c3cccc4c(Cl)cccc34)c2n1
15% | O=C(NC1CCCC1)c1c[nH]c2ccc(S(=O)(=O)Nc3cccc(C(F)(F)F)c3)cc2c1=O
21% | CCOC(=O)c1cc(-c2ccc(F)cc2)n(CCC(=O)NC2CCC(C)CC2)c1C (stereo not drawn)
-21% | Cc1ccc(Nc2c(-c3ccc(N4CCOCC4)cc3)nc3cccc(C)n23)cc1
-8% | Cc1ccc2nc(CN3CCN(S(=O)(=O)c4ccccc4)CC3)oc2c1
5% | COc1ccccc1CNC(=O)Cc1c(C)c2c(cc(C)c3c(C)coc32)oc1=O
-13% | COC(=O)c1cc2occc2n1Cc1ccc(F)cc1Cl
-35% | O=C(Nc1ccccc1C(F)(F)F)c1cc2ccccn2n1
-22% | O=C(Nc1cccc2c1CCCC2)N1CCOc2ccc(Cl)cc21
-9% | CC(=O)N1c2ccccc2C(=O)C1N1CCN(c2ccccc2F)CC1 (stereo not drawn)
14% | c1ccc(-c2noc(-c3cccnc3NCc3ccco3)n2)cc1
9% | CC(=O)c1nn(-c2ccc(OC(F)(F)F)cc2)nc1Nc1ccc(C)cc1
? | Cn1ncc2c(N3CCN(c4ccccc4Cl)CC3)ncnc21
0% | Cn1c(SCc2ccccc2Cl)nc2c([nH]c3ccccc32)c1=O
-4% | CCOc1ccc(-c2noc(CSc3nnc(-c4ccccc4)n3-c3ccccc3)n2)cc1
3% | NC(=O)c1cc(S(=O)(=O)N2CCN(c3cccc(C(F)(F)F)c3)CC2)cs1
1% | Cc1cccc(-c2nc(N3CCN(c4ccc(F)cc4)CC3)c3ccccc3n2)c1
3% | O=C(NCCc1ccccc1)C(=O)NCC(c1cccnc1)N1CCN(c2ccccc2)CC1 (stereo not drawn)
-11% | CN(C)c1ncc(C(=O)NCc2ccc(Cl)cc2)cn1
4% | CC(=O)Nc1cc(C(=O)NCc2ccc(C)cc2)ccc1S(=O)(=O)c1ccc(Cl)cc1
-1% | CCc1ccccc1NC(=O)N1CCOc2ccccc21
7% | CC(=O)c1ccc(NC(=O)c2ccc(-c3nc(CSc4ccccc4)c(C)o3)cc2)cc1
? | CCS(=O)(=O)c1oc(-c2ccc(F)cc2)nc1S(=O)(=O)c1ccc(Br)cc1
-6% | COc1cccc(C(=O)Nc2cccc(C(=O)OCc3cc(=O)n4nc(C(C)C)sc4n3)c2)c1
1% | Fc1ccc(-c2noc3ncnc(NC4CCCCC4)c23)cc1
10% | O=C(NCC(c1cccs1)S(=O)(=O)c1cccs1)c1ccc(C(F)(F)F)cc1 (stereo not drawn)
-2% | CCn1cc(C(=O)NCc2ccccc2Cl)c(=O)c2cc(S(=O)(=O)N3CCOCC3)ccc21
-15% | CCOc1ccc2nc(N3CCN(C(=O)C(C)C)CC3)sc2c1
-21% | O=C(Cn1cnc2c(oc3ccccc32)c1=O)Nc1ccccc1C(F)(F)F
? | CCOc1ccc(Nc2c(S(=O)(=O)c3ccccc3)cnc3ccc(F)cc23)cc1

An excerpt from above in order of the miR-21 reporter value, lowest first.
molecule,miR-21 reporter
COc1cccc(C(=O)Nc2cccc(C(=O)OCc3cc(=O)n4nc(C(C)C)sc4n3)c2)c1,-6%
CCc1ccccc1NC(=O)N1CCOc2ccccc21,-1%
CC(=O)c1ccc(NC(=O)c2ccc(-c3nc(CSc4ccccc4)c(C)o3)cc2)cc1,7%
O=C(NCC(c1cccs1)S(=O)(=O)c1cccs1)c1ccc(C(F)(F)F)cc1 (stereo not drawn),10%

Additional structures follow.
miR-21 reporter | mol
-13% | CCOc1ccc(C(=O)Nc2ccc3oc(-c4ccc5ccccc5c4)nc3c2)cc1
23% | O=C(Cn1ccc2cc(S(=O)(=O)N3CCCCC3)ccc21)NCc1cccc(Cl)c1
21% | CCOc1ccc(C(=O)c2cn(CC(=O)Nc3ccc(F)c(F)c3)c3cc4c(cc3c2=O)OCCO4)cc1
0% | CC1=C(C)CC(C(=O)NCc2cccc(Cl)c2)C(C(=O)O)C1 (stereo not drawn)
-1% | CCS(=O)(=O)C1=NN2C(=N)/C(=C\c3ccc(OC(=O)c4ccco4)c(Br)c3)C(=O)N=C2S1
-2% | Clc1ccc(N2CCN(Cc3nnc(-c4ccc5c(c4)OCO5)o3)CC2)cc1
? | COc1cc(Cl)c(C)cc1NC(=O)c1c(C)oc2nc(C)nc(N3CCCC3)c12
0% | Cc1ccc(C)c(Cn2c3ccccc3c3cnn(CC(=O)NC4CCCCCC4)c(=O)c32)c1
-30% | Cc1ccc(CSC2=Nc3ccccc3C3=NC(CCC(=O)N4CCN(c5ccccc5)CC4)C(=O)N23)cc1 (stereo not drawn)
1% | CCC1CCCCN1S(=O)(=O)c1ccc(N2CCCCS2(=O)=O)cc1 (stereo not drawn)

Two entries drawn at random from those above:
miR-21 reporter | mol
-1% | CCS(=O)(=O)C1=NN2C(=N)/C(=C\c3ccc(OC(=O)c4ccco4)c(Br)c3)C(=O)N=C2S1
21% | CCOc1ccc(C(=O)c2cn(CC(=O)Nc3ccc(F)c(F)c3)c3cc4c(cc3c2=O)OCCO4)cc1

Carrying on.
miR-21 reporter | mol
24% | CCOc1ccc(CCNC(=O)CSc2nnnn2-c2ccc(C)cc2C)cc1OCC
13% | O=C(Nc1ccc2nc(SCc3ccccc3)sc2c1)c1ccccc1F
8% | CCOc1ccc(OCC(=O)NCCS(=O)(=O)N2CCN(c3ccccc3F)CC2)cc1
-45% | COc1ccc(-c2cn3nc(SCC(=O)Nc4cc(C)cc(C)c4)ccc3n2)cc1
